Vif A3G: inhibitors of Vif binding to APOBEC3G peptide, primary screen, biochemical, TR-FRET, GST-Vif 1-94, biotin-A3G peptide, dose response retest (AID 1117319); TR-FRET GST-Vif / biotin-A3G peptide binding; higher % means a stronger effect; test concentration not given here; strong numbers were not always called active; one-dose inhibition, %; IC50 in µM for titrated hits; 260,000 compounds, 0.57% hits;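 active = above the screen mean plus three standard deviations and confirmed in dose response; inconclusive = results disagree or hit not tested in dose response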;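 note: Vif residues 1-94 fused to GST binding biotinylated APOBEC3G peptide 110-148; 0% = full assay without inhibitor and 100% = GST in place of GST-Vif; retest series ran down from 100 µM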
HNF4A DNA FP: change in binding of human HNF4 alpha to DNA; P41235; 360,000 compounds, 0.3% hits; AID 1224865; HNF4a-FITC DNA binding, fluorescence polarization, 1 h; activity change, % at 10 µM; in the data active = activity change above about 30%, passing the limit was not always enough;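 note: controls were the assay level and a saturating level of protein; the project sought stronger binding though the title names inhibitors; some compounds called inactive have numbers as strong as hits; positive values seem to mean higher polarization but the record does not say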
Target sequence (P41235 whole entry, looked up): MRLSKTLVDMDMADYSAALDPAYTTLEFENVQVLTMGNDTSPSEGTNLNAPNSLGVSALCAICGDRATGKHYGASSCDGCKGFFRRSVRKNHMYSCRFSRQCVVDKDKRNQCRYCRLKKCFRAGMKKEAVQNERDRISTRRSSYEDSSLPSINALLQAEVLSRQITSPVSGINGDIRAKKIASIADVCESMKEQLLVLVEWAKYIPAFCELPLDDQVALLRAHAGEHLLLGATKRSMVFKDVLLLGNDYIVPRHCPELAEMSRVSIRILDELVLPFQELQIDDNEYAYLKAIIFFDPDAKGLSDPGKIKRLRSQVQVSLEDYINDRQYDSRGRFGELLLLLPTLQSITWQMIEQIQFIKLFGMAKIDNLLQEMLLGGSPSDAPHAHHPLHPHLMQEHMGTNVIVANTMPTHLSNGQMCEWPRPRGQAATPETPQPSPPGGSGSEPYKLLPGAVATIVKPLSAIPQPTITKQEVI
RanGTP-Imp inh: disruptors of Ran-importin-beta complex formation – biochemical, FRET, CFP-Ran, YFP-importin-beta, homogeneous, primary screen | inhibition, % (no concentration beside the values) | 300,000 compounds, 1.1% hits | cell-free CFP-Ran/YFP-importin-beta FRET ratio;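 active = most replicates above 15%; inconclusive = exactly half above 15%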;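 note: 0% = DMSO wells and 100% = Ran loaded with GDP instead of GTP; wells of about 40 µL received 100 nL stock; the first replicate is given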
Ecoli growth: E. coli growth inhibition; Escherichia coli growth, OD600, 23 h; hits give low values; OD600 absorbance (no concentration beside the values); 330,000 compounds, 0.21% hits; AID 1053175;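 active = OD600 absorbance below the run mean of sample wells minus 3.6 SD, in any replicate, cut at about 0.56 in these data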;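 note: stock transfer was 300 nL into about 60 µL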
UCH37 inh: inhibitors of human deubiquitinating enzyme UCH37; Q9Y5K5; purified proteasome/UCH37, Ub-AMC cleavage fluorescence; inhibition, % (no concentration beside the values); 330,000 compounds, 0.33% hits;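 active = mean of two replicates above 20%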;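 note: 0% = compound-free wells with enzyme and 100% = wells lacking proteasome; stock transfer was 100 nL into about 20 µL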
Target sequence (Q9Y5K5 whole entry, looked up): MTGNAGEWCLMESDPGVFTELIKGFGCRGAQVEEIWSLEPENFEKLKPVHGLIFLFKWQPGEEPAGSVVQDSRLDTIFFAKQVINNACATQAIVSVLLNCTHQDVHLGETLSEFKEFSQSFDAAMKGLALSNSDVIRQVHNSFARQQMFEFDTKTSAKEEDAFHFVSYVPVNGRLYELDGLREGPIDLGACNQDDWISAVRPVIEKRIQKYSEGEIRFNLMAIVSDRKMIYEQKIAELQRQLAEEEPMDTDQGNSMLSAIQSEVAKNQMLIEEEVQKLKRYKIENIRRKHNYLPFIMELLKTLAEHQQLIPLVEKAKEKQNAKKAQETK
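Schedule: 30 min plus 25 min, room temperature / Material: human UCH37 within purified proteasomes / Technique: AMC fluorescence intensity at 355/460 nm / Buffer or medium: pH 7.4 Tris-HCl (50 mM) with ovalbumin, ATP-MgCl2, DTT / Controls: wells without proteasome as full block, compound-free enzyme plus substrate as uninhibited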
MLL AF4-AF9 inh: blocks AF4 peptide binding to human AF9. AlphaScreen, biotin-AF4 peptide binding to FLAG-AF9. inhibition, % at 10 µM. 350,000 compounds, 0.47% hits;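 active = every replicate reaching a set inhibition limit, whatever the replicate mean, cut at about 25% in these data; inconclusive = mean inhibition reaches that limit but some replicates miss it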;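 note: 0% = plate neutral control median and 100% = total signal loss; the record names both 10 and 1 µM as test concentration; the first replicate is given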
FGF22 binding: FGF22 (human) thermal shift binding | 340,000 compounds, 1.5% hits | Q9HCT0 | recombinant FGF22 thermal shift, SYPRO orange fluorescence; percent of sucrose octasulfate shift, DMSO zero | calls only at 9.99 µM;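 active = melting point raised past a set limit in the mean and every replicate; inconclusive = no clear call; three in four hits are not shown here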
Target sequence (Q9HCT0 whole entry, looked up): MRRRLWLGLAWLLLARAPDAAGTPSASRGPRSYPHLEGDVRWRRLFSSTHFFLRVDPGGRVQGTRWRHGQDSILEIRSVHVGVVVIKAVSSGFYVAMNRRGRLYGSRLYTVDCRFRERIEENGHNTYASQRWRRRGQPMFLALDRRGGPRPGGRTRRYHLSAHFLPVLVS
The depositor's hits bear a star; i = inactive; ? = inconclusive; . = no result given. A portion of the library (hit frequency here may not be typical).

SMILES | Vif A3G | HNF4A DNA FP | RanGTP-Imp inh | Ecoli growth | UCH37 inh | MLL AF4-AF9 inh | FGF22 binding
COc1ccc(C(=O)Nc2c(C)cc(C)cc2C)cc1OC | . | 1.5 | 1.8 | 0.68 | 3.3 | 4.3 | i
COCCNC(=O)/C(C#N)=C/c1cccc(OCc2ccccc2)c1 | 5% | 1.4 | -1.2 | 0.65 | 2.1 | 6.0 | i
COc1cc(C(=O)Nc2nc3ccc(C)cc3s2)ccc1OCc1c(C)noc1C | -27% | 0.6 | 0.2 | 0.72 | -19 | . | .
CCC(=O)c1cccc(-c2ccccc2)c1CC | 16% | -3.1 | . | 0.65 | 0.5 | -1.8 | i
CC1CCN(c2c(NCc3ccc(C(=O)N4CCc5ccccc54)cc3)c(=O)c2=O)CC1 | 0% | 3.7 | 1.9 | 0.74 | 3.3 | -2.2 | i
Cn1ccsc1=NC(=O)c1ccc(S(=O)(=O)C(F)F)cc1 | . | 5.7 | 0.7 | 0.65 | -6.1 | -16 | i
CCOC(=O)c1[nH]c2ccc(OC)cc2c1NC(=S)N1CCN(c2ccccn2)CC1 | -9% | -2.0 | -2.9 | 0.72 | 4.1 | -24 | i
Cc1ccc(CSC2=Nc3ccccc3C3=NC(CC(=O)NCc4ccco4)C(=O)N23)cc1 (stereo not given) | 22% | 0.1 | -0.5 | 0.71 | -12 | . | .
O=C(CC(=O)N1CCOCC1)N1CCOCC1 | -2% | 0.9 | . | 0.69 | 1.2 | -6.0 | i
O=C(CCCOc1ccccc1)n1nnc2ccccc21 | 7% | -2.4 | 5.1 | 0.69 | 2.3 | . | .
CN(C)S(=O)(=O)c1cccc(C(=O)NCC(=O)NC2CCN(Cc3ccccc3)CC2)c1 | -5% | 1.4 | 1.0 | 0.71 | 1.6 | -2.5 | i
CC1(C)CC(=O)C(C=NCCN2CCN(C(=O)CC3CCCC3)CC2)=C(O)C1 | -2% | -0.1 | 0.1 | 0.68 | 0.8 | . | .
CCOc1ccc(OCc2ccc(C(=O)NCC3CCCO3)o2)cc1 (stereo not given) | -4% | 0.4 | 1.6 | 0.7 | -0.3 | . | .
COc1ccc(CN2C(=O)[C@@H]3C(c4ccccc4Cl)=NO[C@@H]3C2=O)cc1 | 12% | 1.8 | 0.2 | 0.7 | 3.6 | . | .
CCOC(=O)C1CCN(C(c2cc3ccc(C)cc3[nH]c2=O)c2nnnn2C2CCCCC2)CC1 (stereo not given) | -3% | 26 | ? | 0.73 | 1.9 | . | .
CC(OC(=O)c1cccnc1)C(=O)Nc1ccc2c(c1)OCO2 (stereo not given) | ? | -3.7 | 5.3 | 0.68 | 1.9 | -1.5 | .
COc1cc(NC(=O)CSc2nnnn2Cc2ccccc2)cc(OC)c1 | 2% | 1.5 | ? | 0.73 | 0.9 | 0.1 | i
CCOC(=O)c1c(NC(=O)c2ccc(S(=O)(=O)N3CCOCC3)cc2)sc2c1CC(C)(C)NC2(C)C | 8% | 3.4 | -0.8 | 0.67 | -170 | -3.2 | i
CCOC(=O)N1CCN(c2ccccc2OC)CC1 | -2% | 1.3 | 1.8 | 0.71 | 5.0 | -2.5 | i
CS(=O)(=O)c1sc(C(=O)NC(=O)Nc2cccc(C(F)(F)F)c2)c2c1C=CCC2 | -3% | 0.6 | 5.6 | 0.65 | 7.0 | -3.7 | i
Cc1ccc(NC(=O)Cn2cc(C=O)c3ccccc32)cc1C | . | 2.4 | 2.9 | 0.68 | 1.3 | -6.1 | .
Cn1c(Cn2c(=O)sc3ccccc32)nnc1SCC(=O)NCC1CCCO1 (stereo not given) | 20% | 4.0 | 0.5 | 0.69 | 1.6 | -1.5 | i
CCc1c(C(=O)N/N=C/c2cn[nH]c2-c2ccc(F)cc2)csc1C | 2% | -1.1 | -1.5 | . | . | . | .
CC1CCc2c(C(=O)Nc3ccc(OC(F)(F)F)cc3)csc2C1 (stereo not given) | . | 0.6 | 0.4 | 0.73 | 1.1 | . | .
CCOc1cc(Br)c(C(=O)O)cc1OCC | 4% | 3.0 | 0.2 | 0.66 | -1.1 | . | .
COC(=O)COc1ccc2oc(=O)cc(C)c2c1 | -10% | -3.0 | ? | 0.7 | -23 | . | .
COc1ccc(C)cc1C1=Nc2ccccc2C1(C)C | 9% | -2.2 | 2.8 | 0.73 | 3.6 | . | .
CCCCOc1ccc(C(O)(CC)CCN2CCOCC2)cc1 (stereo not given) | 13% | -0.9 | 2.2 | 0.68 | 3.3 | . | .
COc1ccc(C(C)(NC(C)=O)c2nc(-c3cnc4ccccc4c3)cs2)cc1 (stereo not given) | . | -1.7 | . | . | . | -0.9 | i
CC(C)CNC(=O)N[C@@H](CC(C)C)C(=O)O | -4% | -0.2 | -0.5 | 0.69 | -0.3 | 3.9 | i
COc1ccc([C@H]2Cc3cccc(O)c3C(=O)O2)cc1O | . | -5.0 | . | 0.78 | 2.4 | 1.8 | i
O=C(Nc1ccccc1)c1cccc(C(=O)Nc2ccccc2)n1 | . | -1.2 | -0.5 | 0.73 | -30 | -2.2 | i
CCOC(=O)CSC1=N/C(=C/c2ccc(-n3cncn3)cc2)C(=O)N1C(C)=O | 5% | -4.6 | 1.8 | 0.71 | 0.2 | 0.4 | i
O=C(Nc1ccccc1F)C1CCCN(S(=O)(=O)c2ccc(-n3cnnn3)cc2)C1 (stereo not given) | . | -4.8 | ? | 0.65 | 4.1 | -7.1 | i
O=C(OCC(=O)N1CCC(Cc2ccccc2)CC1)c1cc(Cl)ccc1O | -28% | 0.3 | 1.5 | 0.65 | -9.5 | -11 | i
Cc1ccc(S(=O)(=O)Nc2cc3c(cc2N2CCOCC2)n(C)c(=O)c(=O)n3C)cc1 | 5% | 2.2 | 0.6 | 0.7 | 7.0 | -3.9 | i
Cc1ccc(NC(=O)CCC(=O)NNC(=O)c2ccccc2[N+](=O)[O-])c(C)c1 | -2% | 2.2 | -2.3 | 0.67 | 4.0 | 0.4 | i
CC(=O)N1c2ccc(C)cc2Sc2c1ccc1ccccc21 | -1% | -3.0 | . | 0.77 | 6.0 | -2.2 | i
CCOC(=O)c1cc2c(=O)[nH]ccc2nc1C | 7% | 1.2 | -1.7 | 0.68 | -225 | . | .
CC(C)(C)C(=O)Nc1ccc(-c2csnn2)cc1 | 15% | -0.6 | -6.4 | 0.62 | 4.3 | -0.6 | i
N#CNC(=Nc1cccc(C(F)(F)F)c1)SCc1ccc(C(=O)O)cc1 | ? | -6.1 | 0.2 | 0.66 | 1.4 | 2.8 | i
CC(=O)Nc1ccc(S(=O)(=O)N2CCN(C(=O)c3ncoc3-c3ccc(F)cc3)CC2)cc1 | . | 1.5 | 3.5 | 0.63 | 0.0 | 2.3 | i
CCOC(=O)/C(C#N)=C\c1c(OCC)n(CC)c2ccccc12 | . | -3.3 | 1.4 | 0.67 | -12 | . | .
COc1cc(/C=N/NC(=O)CC2(C)OCCCO2)ccc1OCc1ccccc1 | -6% | 0.5 | 3.1 | . | . | . | .
CN1CCC(n2[nH]c(-c3ccccc3)c(Cc3ccccc3)c2=O)CC1 | -6% | 1.9 | . | 0.69 | 5.3 | 1.8 | i
COc1cccc(-c2ccc(NC(=O)C3CCCN(Cc4cnn(C)c4C)C3)cc2)c1 (stereo not given) | . | 2.9 | -4.4 | 0.67 | 5.7 | 4.8 | i
CCCN(CCC)CCCNC(=O)CC1Nc2ccccc2NC1=O (stereo not given) | 25% | -0.4 | 1.4 | 0.69 | -12 | . | .
COc1cc(C(=O)N2CCCCC2c2cc(C(=O)N3CCOCC3)no2)cc(OC)c1C (stereo not given) | . | 0.0 | . | . | . | 3.8 | i
Cc1ccc(S(=O)(=O)n2nc(OC(=O)c3cccs3)cc2N)cc1 | 0% | -3.3 | ? | 0.72 | 2.1 | . | .
Cc1ccc(-n2c(SCC(=O)OC(C)C)nnc2-c2ccncc2)cc1 | 24% | -0.3 | 2.7 | 0.75 | -3.1 | . | .
CCCCc1c(O)nc(SCC(=O)c2ccccc2)n(-c2ccccc2)c1=O | 5% | 2.3 | 2.8 | 0.69 | 7.3 | -1.1 | i
Cn1c(=O)c2c(nc(SC3C(=O)CC(C)(C)CC3=O)n2C)n(C)c1=O | . | 0.6 | 2.0 | 0.73 | -0.9 | . | .
COc1ccc(N2CCN(C(=O)c3ccc(CS(=O)c4cccc(Cl)c4)o3)CC2)cc1 (stereo not given) | 5% | -3.2 | . | . | . | 7.1 | i
CCSc1nnc(NC(=O)c2cc(C)oc2C)s1 | -1% | 2.2 | 1.7 | 0.67 | 4.1 | . | .
O=C(Nc1ccc(F)cc1)Nc1ccc2c(c1)OCO2 | . | -3.4 | 0.3 | 0.62 | 1.6 | -2.3 | i
CCc1nc(N2CCCCC2)c2oc3ccccc3c2n1 | 1% | 0.2 | 2.2 | 0.7 | -0.6 | . | .
COc1ccc(CCN2C(=O)C=CC2=O)cc1OC | -16% | -1.1 | . | . | . | 4.9 | i
Cc1cc(C)nc(-n2nc(C)cc2NC(=O)CN2CCCC2)n1 | -5% | -0.8 | ? | 0.71 | 1.2 | -1.5 | i
O=C(COc1ccc(Br)cc1)c1ccc2c(c1)CCCC2 | -3% | -2.2 | 0.0 | 0.7 | 2.3 | . | .
Cc1ccc(CNC(=O)CCC2CCCN(Cc3cccc4ncccc34)C2)o1 (stereo not given) | -1% | -2.3 | 1.5 | 0.66 | 1.5 | -5.7 | i

Later entries.
SMILES | Vif A3G | HNF4A DNA FP | RanGTP-Imp inh | Ecoli growth | UCH37 inh | MLL AF4-AF9 inh | FGF22 binding
COc1cc(C=CC(=O)c2ccccc2)cc(OC)c1OC | . | 0.1 | . | . | . | 7.1 | i
COc1ccc(S(=O)(=O)N(C)c2ccc(C(=O)NCc3ccco3)cc2)cc1OC | -3% | 5.6 | -0.6 | 0.67 | 0.2 | 2.8 | i
Cc1ccc(OCCCn2ccnc2)cc1C | -3% | -1.3 | -6.1 | 0.67 | 0.1 | . | .
CN1CCN(C(=O)c2ccccc2[N+](=O)[O-])CC1 | . | -2.7 | 3.4 | 0.65 | 0.7 | -0.4 | i
O=C(Cc1c(Cl)cccc1Cl)OCC(=O)N1CCc2ccccc2C1 | . | -3.9 | 1.1 | 0.69 | 3.4 | -0.8 | i
COc1ccc(S(=O)(=O)Cc2ccc(C(=O)NCc3cccnc3)o2)cc1 | -1% | -1.0 | -5.2 | 0.75 | 4.6 | -2.6 | i
Cn1cc(S(=O)(=O)N2CCCC2)cc1C(=O)Nc1cccc(C(F)(F)F)c1 | . | 0.8 | 3.2 | 0.69 | 1.6 | -4.2 | i
CC(Oc1cccc(Cl)c1)C(=O)Nc1ccc(S(=O)(=O)N(C)C2CCN(C)CC2)cc1 (stereo not given) | 2% | 0.0 | . | 0.62 | 1.8 | 6.4 | i
CCCCCc1nnc(NC(=O)C2CCCO2)s1 (stereo not given) | 0% | -1.3 | -1.6 | 0.71 | -1.4 | . | .

Taken from the results shown, 4 compounds:
SMILES | Vif A3G | HNF4A DNA FP | RanGTP-Imp inh | Ecoli growth | UCH37 inh | MLL AF4-AF9 inh | FGF22 binding
COc1ccc(S(=O)(=O)N(C)c2ccc(C(=O)NCc3ccco3)cc2)cc1OC | -3% | 5.6 | -0.6 | 0.67 | 0.2 | 2.8 | i
Cc1ccc(OCCCn2ccnc2)cc1C | -3% | -1.3 | -6.1 | 0.67 | 0.1 | . | .
CN1CCN(C(=O)c2ccccc2[N+](=O)[O-])CC1 | . | -2.7 | 3.4 | 0.65 | 0.7 | -0.4 | i
O=C(Cc1c(Cl)cccc1Cl)OCC(=O)N1CCc2ccccc2C1 | . | -3.9 | 1.1 | 0.69 | 3.4 | -0.8 | i

Bioassay records: PubChem BioAssay, several laboratories
